Compound activity as filed in PubChem BioAssay.
Beta apoptosis – blocks beta cell apoptosis | INS-1E cytokine-induced death, ATP luminescence, 48 h; percent of positive-control rescue, neutral wells zero | protection from apoptosis, % (concentration not given with the values) | hit rate 0.8% among 300,000 | AID 435005;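 active means all replicates at 75% or more, or half of them and the mean; inconclusive means half reach 75% but not the mean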;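 further: 0% = cytokine-treated negative control wells and 100% = positive control rescue; higher means more ATP so stronger rescue from cytokine killing; wells of about 40 µL received 100 nL stock; the first replicate is given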
RanGTP-Imp inh – disruptors of Ran-importin-beta complex formation – biochemical, FRET, CFP-Ran, YFP-importin-beta, homogeneous, primary screen | cell-free CFP-Ran/YFP-importin-beta FRET ratio | hit rate 1.1% among 300,000 | inhibition, % (test concentration not listed);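 active means most replicates above 15%; inconclusive means exactly half above 15%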;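 further: 0% = DMSO wells and 100% = Ran loaded with GDP instead of GTP; wells of about 40 µL received 100 nL stock; the first replicate is given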
MLL AF4-AF9 inh – blocks AF4 peptide binding to human AF9; P42568; AlphaScreen, biotin-AF4 peptide binding to FLAG-AF9; inhibition, % at 10 µM; hit rate 0.47% among 350,000;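 active means every replicate reaching a set inhibition limit, whatever the replicate mean, cut at about 25% in these data; inconclusive means mean inhibition reaches that limit but some replicates miss it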;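 further: 0% = plate neutral control median and 100% = total signal loss; the record names both 10 and 1 µM as test concentration; the first replicate is given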
Target sequence (P42568 whole entry, looked up): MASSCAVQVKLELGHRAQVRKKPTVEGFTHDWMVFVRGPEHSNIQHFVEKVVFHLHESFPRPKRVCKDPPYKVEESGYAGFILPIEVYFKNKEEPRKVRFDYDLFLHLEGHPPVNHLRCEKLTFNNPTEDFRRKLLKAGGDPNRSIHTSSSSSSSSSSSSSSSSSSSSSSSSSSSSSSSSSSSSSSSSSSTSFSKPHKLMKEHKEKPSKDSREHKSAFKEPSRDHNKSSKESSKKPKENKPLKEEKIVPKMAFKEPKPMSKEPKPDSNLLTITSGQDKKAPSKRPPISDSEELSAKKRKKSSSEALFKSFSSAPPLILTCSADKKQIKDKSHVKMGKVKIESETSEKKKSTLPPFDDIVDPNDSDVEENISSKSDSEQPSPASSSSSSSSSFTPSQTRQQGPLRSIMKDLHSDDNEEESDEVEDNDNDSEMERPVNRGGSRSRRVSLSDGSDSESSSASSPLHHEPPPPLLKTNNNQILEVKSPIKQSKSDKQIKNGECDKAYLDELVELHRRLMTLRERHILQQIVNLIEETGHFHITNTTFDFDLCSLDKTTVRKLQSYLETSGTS
Vif TR-FRET – inhibitors of Vif binding to APOBEC3G peptide, primary screen, biochemical, TR-FRET, GST-Vif 1-94, biotin-A3G peptide, dose response retest (AID 1117319); TR-FRET GST-Vif / biotin-A3G peptide binding; higher % means a stronger effect; test concentration not given here; strong numbers were not always called active; one-dose inhibition, %; IC50 in µM for titrated hits; hit rate 0.57% among 260,000;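 active means above the screen mean plus three standard deviations and confirmed in dose response; inconclusive means results disagree or hit not tested in dose response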;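 further: Vif residues 1-94 fused to GST binding biotinylated APOBEC3G peptide 110-148; 0% = full assay without inhibitor and 100% = GST in place of GST-Vif; retest series ran down from 100 µM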
Ecoli rRNA inh – inhibitors of bacterial rRNA selective over humanized ribosomes; E. coli WT GFP vs humanized-ribosome RFP mutants, fluorescence, 24 h; stronger effect = lower value; DMSO median 0, no signal -100; GFP signal change (wild-type ribosome), % (no concentration beside the values); hit rate 1.6% among 350,000;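 active means significant combined selectivity score with lowered wild-type GFP, culture density cut under 30%, mutant RFP and density less affected; inactive means any of these conditions unmet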; further: one replicate is shown; some compounds called inactive have numbers as strong as hits
Bfl-1 A1 inh – inhibitors of the anti-apoptotic protein A1, read as caspase activation; MEF A1-2A-BIM cells, Caspase-Glo 3/7 luminescence, 3 h; percent of clofoctol response, vehicle zero; caspase activation, % (test concentration not listed); hit rate 0.066% among 330,000; AID 2462;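 active means over half of replicate activation scores above 10%, or exactly half above 10 with the replicate mean above 10; inconclusive means replicate mean below 10 yet half the replicates above 10; inactive means over half of replicates below 10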;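 further: wells of about 30 µL received 50 nL stock; many hits fall short of the cut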
Calb FLC – C. albicans growth modulation with fluconazole; C. albicans CaCi-2 (fluconazole-resistant clinical isolate) + fluconazole, Alamar Blue growth, 48 h; growth inhibition, % (test concentration not listed); hit rate 0.57% among 300,000; AID 1979;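 active means most replicates above 75%; inconclusive means exactly half above 75%; inactive means most below 75%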;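 further: all wells also contain fluconazole at 8 µg/ml as a sub-toxic cotreatment; 0% = median of DMSO wells and 100% = median of geldanamycin control wells; wells of about 8 µL received 7.5 nL stock; the first replicate is given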
T cruzi inh – blocks replication of Trypanosoma cruzi; T. cruzi beta-gal in NIH3T3, luminescence, 90 h; inhibition, % (no concentration beside the values); hit rate 1.4% among 300,000; AID 1885;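 active means mean inhibition across valid replicates above about 55%, limit read from the data; inconclusive means mean below that limit but half or more replicates reach it; inactive means mean below it, under half of replicates reach it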;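 further: signal also drops with host cell toxicity which is not excluded here; 0% = plate median of DMSO wells and 100% = zero luminescence signal; higher percent means less beta-gal luminescence so fewer parasites; stock transfer was 50 nL into about 50 µL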
Ecoli rRNA inh OD600 – further read-out of Ecoli rRNA inh, marked with its call; OD600 change, %; measured here: OD600 growth;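 optical density of the mix in the first replicate; 0 = DMSO median and -100 = no signal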
Ecoli rRNA inh RFP – second read-out of Ecoli rRNA inh, no call of its own (marks repeat the call); RFP signal change, %; measured here: RFP humanized mutant strains;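 first replicate; 0 = DMSO median and -100 = no signal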
Active calls of the source: *; ? = inconclusive; . = not tested or not shown. This is a subset; rates above refer to the full screens.

#	canonical_smiles	Beta apoptosis	Ecoli rRNA inh	RanGTP-Imp inh	T cruzi inh	Ecoli rRNA inh RFP	Calb FLC	Ecoli rRNA inh OD600	MLL AF4-AF9 inh	Vif TR-FRET	Bfl-1 A1 inh
1	COc1ccc(CCNC(=O)Cn2c(=O)n(-c3ccc(C)c(F)c3)c(=O)c3sccc32)cc1OC	2	6	4.0	3	6.9	4	4	-2.8	1%	0.5
2	C=CCC[C@@H](Cc1ccc(F)cc1)C(=O)OCCNC(=O)[C@@H](CC=C)CC(=O)N[C@@H](CO)Cc1ccccc1	2	5	.	.	1.1	.	3	-2.2	-2%	0.4
3	CCOc1ccc(S(=O)(=O)Nc2ccc(C(=O)NCC(c3ccccc3)N(C)C)cc2)cc1 (stereo unspecified)	-1	-12	-4.0	13	9.5	4	2	3.5	.	0.1
4	COc1ccc(/C=N/NC(=O)Nc2cccc3nsnc23)cc1	-12	7	13	28	5.5	-2	18	-1.2	?	-0.4
5	CCOC(=O)Cc1nnc(NC(=O)C(CC)Sc2nncn2C)s1 (stereo unspecified)	-3	3	6.1	-13	-1.9	-10	12	-0.6	25%	2.1
6	Nc1cc(=O)[nH]c(=O)n1CCCc1ccccc1	-4	3	-3.7	5	0.7	-1	4	0.1	-5%	1.0
7	COc1ccc(NC(=O)c2cc(S(=O)(=O)N3CCCCC3)c[nH]2)cc1	-2	2	3.7	-11	-4.7	-7	5	2.1	.	-0.2
8	O=C(O)[C@H](Cc1ccccc1)NC(=O)N1CCOCC1	4	.	-2.8	0	.	11	.	.	10%	1.1
9	CCCCNc1c([N+](=O)[O-])cc(C(=O)O)cc1[N+](=O)[O-]	4	.	-4.1	2	.	7	.	.	4%	-0.2
10	Cc1nn(C)c(Cl)c1C(=O)NC(C(=O)O)c1ccccc1 (stereo unspecified)	-8	16	0.8	-11	-1.3	3	11	-5.0	11%	-0.5
11	Cc1ccccc1NC(=O)C1CCCN(C(=O)NCc2ccccc2)C1 (stereo unspecified)	-1	10	2.9	2	-1.5	-1	9	-2.3	4%	-0.4
12	CCN(CC)CC(=O)Nc1scc2c1c(=O)oc1ccccc12	5	5	-5.2	4	-1.5	-1	7	-3.6	-29%	-0.6
13	COc1ccc(C(CCN2CCCC2)c2c(OC)cc(OC)c3c(-c4ccccc4)cc(=O)oc23)cc1 (stereo unspecified)	4	5	3.1	34	4.7	-21	-4	15	.	-0.8
14	CCOC(=O)c1nc(Nc2ccc(Nc3ccccc3)cc2)c2ccccc2n1	.	-37	0.4	16	5.7	27	-47	12	-2%	.
15	c1ccc(C2c3[nH]c4ccccc4c3CCN2Cc2cccn2-c2cccnc2)nc1 (stereo unspecified)	-2	-40	-5.2	25	16	7	-64	17	16%	1.0

Continued, starting with the last 2 of the part before.
#	canonical_smiles	Beta apoptosis	Ecoli rRNA inh	RanGTP-Imp inh	T cruzi inh	Ecoli rRNA inh RFP	Calb FLC	Ecoli rRNA inh OD600	MLL AF4-AF9 inh	Vif TR-FRET	Bfl-1 A1 inh
14	CCOC(=O)c1nc(Nc2ccc(Nc3ccccc3)cc2)c2ccccc2n1	.	-37	0.4	16	5.7	27	-47	12	-2%	.
15	c1ccc(C2c3[nH]c4ccccc4c3CCN2Cc2cccn2-c2cccnc2)nc1 (stereo unspecified)	-2	-40	-5.2	25	16	7	-64	17	16%	1.0
16	CCOC(=O)C1CCN(S(=O)(=O)c2c(C)noc2C)CC1	-3	6	4.1	-7	-2.9	-7	13	-0.5	.	0.8
17	COc1ccc(NC(=O)CSc2nc3ccccc3nc2N2CCOCC2)c(OC)c1	3	4	-0.5	11	5.3	6	-1	15	.	0.3
18	CN(C)c1ccc(/C=C/C=N/Nc2nc(N3CCOCC3)nc(N3CCOCC3)n2)cc1	4	18	2.8	-1	0.9	41	25	9.5	17%	0.7
19	CCC(CC)C(=O)Nc1ccc(Cl)c(Cl)c1	1	.	1.7	13	.	-12	.	.	15%	-0.2
20	CCOC(=O)C1=C(C)NC(SCC(=O)O)=C(C#N)C1c1ccco1 (stereo unspecified)	0	.	-2.3	-10	.	0	.	.	10%	-0.4
21	COc1ccccc1NC(=O)COC(=O)c1ccc2c(c1)nc(C)n2-c1ccccc1	6	.	-1.3	4	.	-5	.	.	-34%	-0.4
22	O=C1CCCN1c1ccc(S(=O)(=O)NCc2ccco2)cc1	5	.	-0.6	2	.	-8	.	.	4%	0.1
23	Cc1ccc(C(=O)N2CC(=O)NC(=O)C2)cc1	-4	14	0.8	-7	1.6	8	14	-8.8	16%	-0.1
24	CC1CN(C(=O)/C=C/c2ccc([N+](=O)[O-])s2)CC(C)O1 (stereo unspecified)	-15	1	8.1	-4	5.3	10	-5	0.4	11%	0.5
25	N#CCCN(Cc1cccnc1)C(=S)Nc1ccc(OC(F)F)cc1	-3	11	4.9	-5	1.6	-10	12	-2.6	.	0.8
26	O=C(Cn1c(C(F)(F)F)nc2ccccc21)N/N=C/c1ccco1	.	3	1.3	-16	0.8	-3	7	0.4	1%	1.2
27	Cc1cc(NC(=O)C(C)SCC(=O)OCC(=O)N(Cc2ccccc2)C(C)(C)C)no1 (stereo unspecified)	-8	3	1.5	-9	0.7	-1	6	0.7	1%	0.3
28	O=C(O)CCn1[nH]c(=O)c2ccccc2c1=O	-1	.	-2.2	-16	.	-3	.	.	-7%	-0.3
29	CCOC(=O)CCNC(=O)N1CCCC(CCC(=O)N(C)CCc2ccccn2)C1 (stereo unspecified)	-16	12	-1.5	4	2.8	-9	9	-2.2	.	-0.7
30	COc1ccc(NC(=O)CSc2nncn2N)c(OC)c1	0	7	-3.4	-15	-0.2	3	2	0.5	2%	1.3
31	COc1cc(C)nc(N(Cc2ccccc2)S(=O)(=O)c2ccccc2)n1	2	.	-1.6	20	.	-16	.	.	2%	0.5
32	CCOc1ccc(S(=O)(=O)NCC(c2ccc3c(c2)OCO3)N2CCN(C)CC2)cc1 (stereo unspecified)	-6	7	-3.9	10	2.0	0	7	-37	-2%	-1.5
33	O=C1CC(N(O)c2ccccc2)C(=O)N1Cc1ccccc1 (stereo unspecified)	-1	.	-4.0	6	.	5	.	.	4%	0.5
34	CS(=O)(=O)C1=NN2C(=N)/C(=C\c3ccc(OC(=O)c4ccco4)cc3)C(=O)N=C2S1	5	3	7.0	-7	-1.4	14	8	-0.5	.	0.2
35	CC(=O)Nc1cccc(Cn2cccn2)c1	.	23	0.2	-17	4.1	-21	6	-11	-1%	.
36	CCCn1c(SCc2ccc(Cl)cc2)nc2c1c(=O)[nH]c(=O)n2C	1	.	2.7	0	.	-2	.	.	3%	-1.9
37	OC(CNCC1CCCO1)Cn1c2ccccc2c2ccccc21 (stereo unspecified)	-5	.	6.3	4	.	-12	.	.	-1%	-0.9
38	COc1ccc(OC)c(C(O)c2nc3ccccc3n2C(C)C)c1 (stereo unspecified)	1	.	7.8	-6	.	2	.	.	7%	1.7
39	O=C(Nc1ccc2ccccc2c1)NC1CCS(=O)(=O)C1 (stereo unspecified)	-7	-3	3.4	-21	-5.1	-21	-2	-3.5	-2%	0.6
40	COc1ccc(C(=O)C2CCCN(C(=O)c3csc(C(C)=O)c3)C2)c(C)c1 (stereo unspecified)	.	5	0.5	-10	2.2	-4	0	2.1	.	-2.5
41	CCOc1cc2[nH]c(=O)n(CCCCC(=O)NCc3ccco3)c(=O)c2cc1OCC	2	.	3.8	4	.	45	.	.	-2%	0.2
42	Cc1ccc(CN2CCN(/N=C/c3ccc(C(F)(F)F)cc3)CC2)c(C)c1	-3	16	2.4	11	2.6	-8	12	17	0%	0.6
43	CC1CCCCN1C(=O)CSc1nc2ccccc2n1CC(=O)N1CCc2ccccc21 (stereo unspecified)	4	.	1.4	17	.	7	.	.	1%	-0.6
44	COc1ccc(-c2noc(CCC(=O)Nc3cccc(C)c3)n2)cc1	-10	.	-0.6	-9	.	-3	.	.	1%	1.1
45	Cc1nc(NC(=O)C(Cl)Cl)sc1C(=O)N(C)C	-3	.	0.8	-5	.	7	.	.	.	0.5
46	Cc1cc2ncn(CS(C)(=O)=O)c2cc1C	-12	14	0.2	-11	-2.3	-4	7	-1.1	-2%	-0.5
47	O=C(NNC(=S)Nc1cccc(C(F)(F)F)c1)c1ccccc1Cl	9	-58	0.7	-4	-35	8	-80	-0.1	-4%	-0.3
48	C/C(=N/NS(=O)(=O)c1ccc(Cl)cc1)c1cccc(NC(=O)c2ccc(Cl)cc2Cl)c1	3	.	4.2	.	.	27	.	.	8%	-0.7
49	O=C(CCl)N(CCCNC(=O)C(F)(F)F)c1ccc([N+](=O)[O-])cc1	-3	8	5.6	-12	3.3	1	4	0.8	0%	1.4
50	COc1cc(NC(=O)CSc2nc(C)c(C)c(C)n2)c(C)cc1[N+](=O)[O-]	6	17	3.0	1	1.4	4	7	-8.3	.	-1.3

A different layout for part of the listing above.
11. Cc1ccccc1NC(=O)C1CCCN(C(=O)NCc2ccccc2)C1 (stereo unspecified)
- Beta apoptosis: -1
- Ecoli rRNA inh: 10
- RanGTP-Imp inh: 2.9
- T cruzi inh: 2
- Ecoli rRNA inh RFP: -1.5
- Calb FLC: -1
- Ecoli rRNA inh OD600: 9
- MLL AF4-AF9 inh: -2.3
- Vif TR-FRET: 4%
- Bfl-1 A1 inh: -0.4

12. CCN(CC)CC(=O)Nc1scc2c1c(=O)oc1ccccc12
- Beta apoptosis: 5
- Ecoli rRNA inh: 5
- RanGTP-Imp inh: -5.2
- T cruzi inh: 4
- Ecoli rRNA inh RFP: -1.5
- Calb FLC: -1
- Ecoli rRNA inh OD600: 7
- MLL AF4-AF9 inh: -3.6
- Vif TR-FRET: -29%
- Bfl-1 A1 inh: -0.6

13. COc1ccc(C(CCN2CCCC2)c2c(OC)cc(OC)c3c(-c4ccccc4)cc(=O)oc23)cc1 (stereo unspecified)
- Beta apoptosis: 4
- Ecoli rRNA inh: 5
- RanGTP-Imp inh: 3.1
- T cruzi inh: 34
- Ecoli rRNA inh RFP: 4.7
- Calb FLC: -21
- Ecoli rRNA inh OD600: -4
- MLL AF4-AF9 inh: 15
- Vif TR-FRET: .
- Bfl-1 A1 inh: -0.8

14. CCOC(=O)c1nc(Nc2ccc(Nc3ccccc3)cc2)c2ccccc2n1
- Beta apoptosis: .
- Ecoli rRNA inh: -37
- RanGTP-Imp inh: 0.4
- T cruzi inh: 16
- Ecoli rRNA inh RFP: 5.7
- Calb FLC: 27
- Ecoli rRNA inh OD600: -47
- MLL AF4-AF9 inh: 12
- Vif TR-FRET: -2%
- Bfl-1 A1 inh: .
